Rango dissoc inh = prevents RanGTP from dissociating the Rango-importin beta complex. O95149+P62826. Biochemical FRET Rango-importin beta, RanGTP-induced dissociation. Potency, µM (top dose mostly 46.1 µM), for inactives: top-dose activity change, negative = inhibition. hit rate 0.071% among 340,000. AID 540253; active means falling FRET ratio curve, often poorly fitted, with flat reads before Ran was added; inconclusive means other falling curves, or compound fluorescence or quenching; inactive means flat or rising ratio curve;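 note: potency is the fitted concentration of half-maximal effect; % of control where 0% means no effect; nearly all actives have a fitted effect of over 45% in size; -100% = wells without RanGTP and RCC1; the record marks most hits as doubtful in a second field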
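Quantitative HTS using a FRET biosensor: 0.1 uM Rango, 0.25 uM importin beta, 0.6 uM Ran, 2 mM GTP, 0.2 uM RCC1 final, PBS with DTT, Tween-20 and BSA. Post-read taken 45 min after Ran addition.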
Rango-impB inh = inhibitors of Rango-importin beta complex formation; Rango CFP/YFP FRET sensor + importin beta, 45 min; Potency, µM (top dose mostly 92.2 µM), for the others: at the top dose inhibition of complex formation; hit rate 0.031% among 340,000; Q14974; active = rising FRET ratio curve, often small or poorly fitted; inconclusive = mostly compound fluorescence or quenching in the first reads; inactive = flat curves in all reads;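 note: potency is the fitted concentration of half-maximal effect; 0% = DMSO wells and 100% = buffer wells lacking importin beta; nearly all actives have a fitted effect of over 15% in size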
Target sequence (Q14974 whole entry, looked up): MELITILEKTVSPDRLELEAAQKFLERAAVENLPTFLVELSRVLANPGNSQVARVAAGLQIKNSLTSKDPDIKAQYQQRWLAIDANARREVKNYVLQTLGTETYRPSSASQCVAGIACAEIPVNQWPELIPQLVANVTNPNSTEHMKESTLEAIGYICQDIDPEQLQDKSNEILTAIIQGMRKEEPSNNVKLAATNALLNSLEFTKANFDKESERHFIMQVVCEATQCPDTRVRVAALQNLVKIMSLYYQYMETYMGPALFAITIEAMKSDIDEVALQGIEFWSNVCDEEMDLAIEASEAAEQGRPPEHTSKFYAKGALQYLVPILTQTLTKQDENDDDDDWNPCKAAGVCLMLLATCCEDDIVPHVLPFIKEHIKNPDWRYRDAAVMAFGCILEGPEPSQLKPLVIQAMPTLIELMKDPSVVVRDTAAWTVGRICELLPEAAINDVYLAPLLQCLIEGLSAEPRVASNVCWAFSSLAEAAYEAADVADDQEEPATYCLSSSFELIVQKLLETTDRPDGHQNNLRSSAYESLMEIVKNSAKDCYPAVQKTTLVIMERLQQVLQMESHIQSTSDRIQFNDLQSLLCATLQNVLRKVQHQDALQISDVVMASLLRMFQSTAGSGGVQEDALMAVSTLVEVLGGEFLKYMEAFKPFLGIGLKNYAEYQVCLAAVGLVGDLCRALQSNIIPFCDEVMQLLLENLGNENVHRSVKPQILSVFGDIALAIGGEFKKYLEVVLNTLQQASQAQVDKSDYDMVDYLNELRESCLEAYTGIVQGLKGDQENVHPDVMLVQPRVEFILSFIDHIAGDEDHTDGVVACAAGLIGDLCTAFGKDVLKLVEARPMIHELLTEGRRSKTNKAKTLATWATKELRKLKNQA
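FRET biosensor (snurportin 1 IBB flanked by EYFP and cerulean), 50 nM, with compound 5 min, then 0.125 microM importin beta in PBS, 1 mM DTT, 0.02% Tween-20, 0.1% BSA. CFP/YFP ratio read after 45 min at room temperature; pre-read flags interference.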
GLA inh pH 4.5 = blocks human alpha-galactosidase A at pH 4.5; P06280; purified enzyme, 4-MU-alpha-Gal fluorescence, pH 4.5; activity change, negative = inhibition, % at 105 µM; 230,000 tested, under 10 active; AID 1467; inconclusive = small, poorly fitted or top-dose-only inhibition, or a rising curve; inactive = flat fitted curve, though single readings scatter; no compound was filed as active;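 note: 0% = full activity with enzyme and -100% = basal without enzyme; dose as in the result columns while the protocol names 77 µM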
miR-21 FLuc = raises the signal of a miR-21 reporter; HeLa miR-21 FLuc reporter, luciferase, 48 h; Potency, µM (series often up to 38.3 µM), for inactives: top-dose reporter change, positive = more light; 340,000 tested, under 10 active; AID 2288; active = well fitted rising curve with a large enough effect; inconclusive = small, poorly fitted or top-dose-only effect; inactive = no such curve, though single readings can be large or run the other way;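 note: % of control where 0% means no effect; miR-21 action dims this reporter so a rising signal means less miR-21 action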
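HeLa cells endogenously expressing miR-21, stably carrying CMV-driven firefly luciferase with a downstream miR-21 binding site, 2000 cells/well. Titrations up to approximately 40 uM, 48 hours; luciferase luminescence read.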
Starred values were filed as active, the others as inactive; u = inconclusive; x = no result given. Some of the compounds tested; rates above refer to the full screens.

cpd	SMILES	GLA inh pH 4.5	miR-21 FLuc
1	Cc1ccc(C(=O)Cn2c3[n+](c4ccccc42)CC(O)CS3)cc1 (centres undefined)	-3	-1%
2	CCn1c(=NC(=O)c2ccco2)sc2cccc(F)c21	-3	-31%
3	COc1ccc(N2C(=NC(=O)C3CCCO3)SC3CS(=O)(=O)CC32)cc1 (centres undefined)	x	-2%
4	COc1ccc(S(=O)(=O)N(C)c2ccc(C(=O)NCC3CCCO3)cc2)cc1 (centres undefined)	8	-7%
5	CCOC(=O)c1c(NC(=O)CN2C(=O)NC3(CCC(C)CC3)C2=O)sc(C)c1CC (centres undefined)	x	x
6	CCC(C)NC(=O)c1ccc(CSCc2ccccc2Cl)o1 (centres undefined)	x	-9%
7	CS(=O)(=O)NCCNc1ncc(C(F)(F)F)cc1Cl	-6	-6%
8	Cc1[nH]nc2c1C(c1ccc(F)cc1)C(C#N)=C(N)O2 (centres undefined)	-3	-2%
9	COCCOC(=O)c1c(C)oc2ccc(OCC=C(C)C)cc12	5	-14%
10	O=C(Cn1nc2n(c1=O)-c1ccccc1SC2)N/N=C/c1cccs1	-22	-2%
11	CCC(C)C(=O)Nc1nc2ccc(S(C)(=O)=O)cc2s1 (centres undefined)	-3	0%
12	CCOC(=O)C1(Cc2ccccc2C(F)(F)F)CCN(C(=O)c2cc(C(C)=O)n[nH]2)CC1	8	-15%

cpd	Rango-impB inh	Rango dissoc inh
1	1.4%	-21%
2	-0.7%	-7%
3	2.0%	14%
4	-2.1%	19%
5	1.7%	0%
6	2.6%	18%
7	-2.5%	0%
8	3.4%	-14%
9	1.8%	4%
10	-3.0%	-2%
11	0.0%	-12%
12	-2.7%	6%

Next part
cpd	SMILES	GLA inh pH 4.5	miR-21 FLuc
13	O=C(O)CNC(=O)c1ccccc1F	1	3%
14	CCC(CC)c1nnc(NC(=O)Cc2cccs2)s1	3	3%
15	C=C(C)CSc1nnc(-c2ccc(OC)c(OC)c2)n1N	9	-8%
16	CSc1ccc(C(=O)C2CCCN(C(=O)CCc3cnn(C)c3)C2)cc1 (centres undefined)	x	11%
17	CC(=O)N1N=C(c2ccc3ccccc3c2)OC1(C)C	-5	-1%
18	CN(Cc1ccccc1)C(=O)COC(=O)C1CCN(S(=O)(=O)c2ccc(Cl)c(C(F)(F)F)c2)CC1	x	x
19	COc1cc([N+](=O)[O-])cc2sc(NC(=O)c3c(F)cccc3F)nc12	-15	1%
20	COC(=O)CC1SC(=O)NC1=O (centres undefined)	4	-2%
21	CCc1cc2cc(C)cc(C)c2nc1SCC(=O)N1CCCC1	-9	-5%
22	CC(C)OCC(O)CCc1n[nH]c(=S)n1-c1ccccc1 (centres undefined)	-9	-3%
23	COc1ccc(S(=O)(=O)N2CCOCC2)c(C)c1C	1	-19%
24	COc1cc(C(=O)O)cc(NC(=O)c2cccs2)c1OC	10	3%

cpd	Rango-impB inh	Rango dissoc inh
13	0.2%	1%
14	u	-13%
15	-4.5%	-11%
16	2.0%	-8%
17	-2.1%	-4%
18	-6.9%	2%
19	u	u
20	1.6%	2%
21	-1.9%	12%
22	0.7%	-7%
23	1.3%	0%
24	-1.4%	u

Other compounds.
cpd	SMILES	GLA inh pH 4.5	miR-21 FLuc
25	COC(=O)c1ccc2c(=O)n(Cc3ccc(C(=O)NCCCN4CCOCC4)cc3)c(=S)[nH]c2c1	x	-17%
26	CN=c1sc2ccccc2n1CC(O)c1ccccc1 (centres undefined)	-4	8%
27	Cc1nnc(SCC(=O)N2CCN(c3ccccc3F)CC2)n1C1CC1	x	x
28	CCOc1ccc(NS(=O)(=O)c2ccc(NS(=O)(=O)c3cccs3)cc2)cc1	x	4%
29	CCc1nnc(NC(=O)CSc2nnc(C)n2Cc2ccccc2)s1	-20	-4%
30	Cc1ccc(Oc2ccc3c(c2)C(=O)N(c2cccc4cccnc24)C3=O)cc1	-17	0%
31	Fc1ccc(/C=N/n2cnn(Cc3ccccc3Cl)c2=S)cc1	-16	-2%
32	O=C(N/N=C/c1cccc(O)c1)c1cc(-c2ccccc2)nc2ccccc12	x	9%
33	Clc1ccccc1Cn1nnc(-c2cccs2)n1	-8	-51%
34	CNC(=O)CSc1nc2cc(S(=O)(=O)Nc3ccc(OC)cc3)ccc2o1	x	x
35	COc1ccc(OC)c(S(=O)(=O)NC(N)=NCCc2ccccc2OC)c1	8	0%
36	O=C(CN1C(=O)NC2(CCCC2)C1=O)N1CCN(S(=O)(=O)c2cc(Cl)ccc2Cl)CC1	x	x

cpd	Rango-impB inh	Rango dissoc inh
25	0.5%	5%
26	1.5%	1%
27	1.3%	11%
28	4.2%	1%
29	2.4%	-14%
30	-3.6%	25%
31	-0.5%	12%
32	-0.1%	-4%
33	-2.6%	0%
34	-1.7%	-12%
35	x	x
36	-0.5%	8%

Values in list order from the list.
Nos. 25 to 36 in Rango dissoc inh, in turn: 5%, 1%, 11%, 1%, -14%, 25%, 12%, -4%, 0%, -12%, x, 8%

The list continues.
cpd	SMILES	GLA inh pH 4.5	miR-21 FLuc
37	CSC1=NCCN1C(=O)c1ccc(S(=O)(=O)N2CCOCC2)cc1	-1	-2%
38	CN(C)CCN(Cc1ccco1)C(=O)c1oc2ccccc2c1NC(=O)COc1ccccc1	x	0%
39	O=C1CC(c2ccccc2)CC(=O)N1c1ccc(C(F)(F)F)cc1	x	x
40	CCN(CC(=O)Nc1ccccc1OC)C(=O)CSCC(=O)Nc1ccc(OC)cc1	x	x
41	Cc1c(N2C(=O)CSC2c2ccccc2)c(=O)n(-c2ccccc2)n1C (centres undefined)	-6	-4%
42	Cc1ccccc1Oc1ccc(NC(=O)C2CC=CCC2C(=O)O)cc1 (centres undefined)	6	-20%
43	CCc1nc2ccccc2n1CCC(=O)O	-16	-3%
44	C#CC1(O)CC(C)NCC1(C)CCC#N (centres undefined)	0	-1%
45	COc1ccc(N2CCCCn3c2nc2c3c(=O)[nH]c(=O)n2C)cc1	-8	-3%

cpd	Rango-impB inh	Rango dissoc inh
37	5.2%	0%
38	2.9%	10%
39	6.3%	-16%
40	-2.1%	-5%
41	-1.9%	1%
42	0.2%	7%
43	2.0%	0%
44	-2.5%	9%
45	2.9%	1%

16 structures from above, sorted by SMILES length, highest first:
cpd	SMILES	GLA inh pH 4.5	miR-21 FLuc
36	O=C(CN1C(=O)NC2(CCCC2)C1=O)N1CCN(S(=O)(=O)c2cc(Cl)ccc2Cl)CC1	x	x
38	CN(C)CCN(Cc1ccco1)C(=O)c1oc2ccccc2c1NC(=O)COc1ccccc1	x	0%
28	CCOc1ccc(NS(=O)(=O)c2ccc(NS(=O)(=O)c3cccs3)cc2)cc1	x	4%
30	Cc1ccc(Oc2ccc3c(c2)C(=O)N(c2cccc4cccnc24)C3=O)cc1	-17	0%
40	CCN(CC(=O)Nc1ccccc1OC)C(=O)CSCC(=O)Nc1ccc(OC)cc1	x	x
32	O=C(N/N=C/c1cccc(O)c1)c1cc(-c2ccccc2)nc2ccccc12	x	9%
34	CNC(=O)CSc1nc2cc(S(=O)(=O)Nc3ccc(OC)cc3)ccc2o1	x	x
41	Cc1c(N2C(=O)CSC2c2ccccc2)c(=O)n(-c2ccccc2)n1C (centres undefined)	-6	-4%
35	COc1ccc(OC)c(S(=O)(=O)NC(N)=NCCc2ccccc2OC)c1	8	0%
39	O=C1CC(c2ccccc2)CC(=O)N1c1ccc(C(F)(F)F)cc1	x	x
27	Cc1nnc(SCC(=O)N2CCN(c3ccccc3F)CC2)n1C1CC1	x	x
29	CCc1nnc(NC(=O)CSc2nnc(C)n2Cc2ccccc2)s1	-20	-4%
26	CN=c1sc2ccccc2n1CC(O)c1ccccc1 (centres undefined)	-4	8%
33	Clc1ccccc1Cn1nnc(-c2cccs2)n1	-8	-51%

cpd	Rango-impB inh	Rango dissoc inh
36	-0.5%	8%
38	2.9%	10%
28	4.2%	1%
30	-3.6%	25%
40	-2.1%	-5%
32	-0.1%	-4%
34	-1.7%	-12%
41	-1.9%	1%
35	x	x
39	6.3%	-16%
27	1.3%	11%
29	2.4%	-14%
26	1.5%	1%
33	-2.6%	0%

cpd	SMILES	GLA inh pH 4.5	miR-21 FLuc
44	C#CC1(O)CC(C)NCC1(C)CCC#N (centres undefined)	0	-1%
43	CCc1nc2ccccc2n1CCC(=O)O	-16	-3%

cpd	Rango-impB inh	Rango dissoc inh
44	-2.5%	9%
43	2.0%	0%

Source: PubChem BioAssay (National Center for Advancing Translational Sciences (NCATS))
